Screening results from PubChem BioAssay.
Arbovirus anti: antivirals against arbovirus infection, primary screen, cell-based, full library, 10K replicate subset; arbovirus infection cell-based antiviral screen; inhibition, % at 10 µM; actives 0.37% (n = 200,000); AID 1251, 2008;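 active means inhibition from about 30%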;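 further: bluetongue infection of BSR cells; cell survival read as ATP light after 72 h; 0% = infected wells without compound and 100% = uninfected wells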
RecA intein inh: Mtb RecA intein splicing inhibitors, primary screen, biochemical, fluorescence, HTS; Protein RecA (Mycobacterium tuberculosis (strain ATCC 25618 / H37Rv)), P9WHJ3; cell-free RecA intein splicing; inhibition, %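 (about 9 µM by stock and volumes)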; actives 0.75% (n = 290,000); in the data active means inhibition above about 30%; inconclusive means no clear call, values can overlap the other calls;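 further: 0% = vehicle wells and 100% = reference inhibitor control wells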
Target sequence (P9WHJ3 whole entry, looked up): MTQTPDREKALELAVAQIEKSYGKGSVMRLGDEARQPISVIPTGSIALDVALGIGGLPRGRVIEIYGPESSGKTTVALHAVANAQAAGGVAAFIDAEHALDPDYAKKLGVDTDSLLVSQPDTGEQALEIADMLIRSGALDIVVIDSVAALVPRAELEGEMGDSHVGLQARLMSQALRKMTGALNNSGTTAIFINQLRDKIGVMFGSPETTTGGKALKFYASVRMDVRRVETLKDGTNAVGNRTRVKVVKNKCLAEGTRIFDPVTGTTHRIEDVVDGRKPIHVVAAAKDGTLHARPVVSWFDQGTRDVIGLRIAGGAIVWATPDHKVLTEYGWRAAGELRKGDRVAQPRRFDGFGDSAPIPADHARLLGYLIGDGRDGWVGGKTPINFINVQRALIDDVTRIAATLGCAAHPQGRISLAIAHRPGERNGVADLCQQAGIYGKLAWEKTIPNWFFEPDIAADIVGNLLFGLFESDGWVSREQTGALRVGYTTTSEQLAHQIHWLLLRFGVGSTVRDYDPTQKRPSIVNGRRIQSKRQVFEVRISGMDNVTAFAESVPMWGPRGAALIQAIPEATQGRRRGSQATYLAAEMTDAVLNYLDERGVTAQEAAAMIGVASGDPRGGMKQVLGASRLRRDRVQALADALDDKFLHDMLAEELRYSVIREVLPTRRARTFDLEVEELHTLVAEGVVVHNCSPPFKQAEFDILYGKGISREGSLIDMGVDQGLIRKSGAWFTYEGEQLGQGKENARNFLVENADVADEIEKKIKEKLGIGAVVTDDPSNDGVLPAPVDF
YopH inh: YopH tyrosine phosphatase inhibitors, primary screen, biochemical, fluorescence Ex485/Em525. YopH tyrosine phosphatase [Yersinia enterocolitica]. inhibition, %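 (about 10 µM by stock and volumes)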. actives 0.16% (n = 140,000);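 active means inhibition of 50% or more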;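 further: controls were vehicle for no effect and minimum signal wells for full effect; inactives centre near -20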
Mtb betalactam: beta-lactam sensitization of Mtb H37Rv, H37Rv; M. tuberculosis H37Rv growth with meropenem, percent inhibition; hits of this screen are not shown here; inhibition, % at 25 µM; actives 0.27% (n = 330,000);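 active means about 74% or more and at least 40 points above the plate without the antibiotic, then above 30% in a dose series; inconclusive means first-round hits that could not be retested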;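 further: growth measured after seven days incubation then overnight dye step; 0% = bacteria only wells and 100% = bacteria with antibiotic; twin plates without the antibiotic show which effects depend on it; some results filed as inactive read as strong as hits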
Mtb growth: M. tuberculosis H37Rv growth inhibitors, H37Rv strain (AID 1626). M. tuberculosis H37Rv growth inhibition; higher % means a stronger effect. one-dose inhibition, % at 10 µM; IC50 in µM for titrated hits. actives 0.95% (n = 220,000);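 active means confirmed in a dose series; inconclusive means inhibition above 80% but not taken into the dose series; inactive means below 80% or under 30% at every dose of the series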;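 further: bacteria incubated seven days before Alamar blue readout; 0% = bacteria only wells and 100% = bacteria with antibiotic wells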
Arbovirus anti repeat: second read-out of Arbovirus anti, no call of its own (marks repeat the call); inhibition, %; measured here: 10K subset replicate screen; many hits read low in the repeat;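 first of two repeat runs on a subset; 0% = infected and 100% = uninfected wells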
* = called active by the depositor; u = inconclusive; x = no result given.

SMILES | Arbovirus anti | RecA intein inh | YopH inh | Mtb betalactam | Mtb growth | others
Cc1c(NC(=S)Nc2ccccc2C(F)(F)F)cccc1[N+](=O)[O-] | -1 | -1.6 | -25 | 7 | -9%
CN1CCN(S(=O)(=O)c2ccc(NC(=O)c3cccc(F)c3)cc2)CC1 | x | -1.5 | x | 1 | x
Cc1ccc(Cl)cc1N1CCN(Cc2nc3ccsc3c(=O)[nH]2)CC1 | -19 | 3.7 | 1 | 97 | 25%
Fc1ccc(-c2csc(N3CCSCC3)n2)cc1 | 3 | 3.7 | x | 0 | 2%
Cc1n[nH]c(=O)nc1N/N=C/c1ccc(O)c([N+](=O)[O-])c1 | -11 | -3.0 | -35 | 5 | -13%
CC1CC(C)CN(C(=O)COC(=O)c2cc(S(=O)(=O)N3CCOCC3)ccc2F)C1 (configuration not stated) | x | -1.8 | x | 0 | x
CCC1(CC)Cc2ccccc2C(=C(C#N)C#N)N1 | 12 | 4.1 | -42 | 6 | 2%
CCn1c(=N)c(S(=O)(=O)c2ccccc2)cc2c(=O)n3ccccc3nc21 | -12 | -99 | x | -1 | 3%
Cc1nn(CCO)c2c1C(=O)CCC2 | 4 | 11 | -31 | -2 | -1%
Clc1ccc2c(NCc3ccco3)ncnc2c1 | 3 | 1.0 | -12 | -4 | 0%
O=C(c1cc(=O)[nH]c2ccccc12)N1CCN(c2ccc([N+](=O)[O-])cc2)CC1 | x | -1.9 | x | -7 | x
COC(c1ccccc1)(c1ccccc1)C(Oc1nccc(C)n1)C(=O)O (configuration not stated) | x | -1.1 | x | 6 | x
CC(CN1CCN(c2ccccc2)CC1)c1ccccc1 (configuration not stated) | -4 | 1.5 | -20 | -8 | -5%
Cc1ccc(-c2ccc(OCC(=O)N3CCOCC3)cc2)cc1 | 7 | 2.0 | -14 | 66 | 6%
O=C(NCc1ccccc1)N1CCC(c2nc3ccccc3[nH]2)CC1 | 8 | 1.0 | -50 | -4 | -3%
COc1cc2c(cc1NC(=O)COC(=O)CNS(=O)(=O)c1ccc(C)cc1)oc1ccccc12 | 17 | 0.4 | -42 | 19 | 10%
Cc1cccc(NC(=O)c2ccccc2[N+](=O)[O-])n1 | 4 | 2.4 | -11 | -2 | -5%
CN(CCN1CCOCC1)C(=O)CC1C(=O)NCCN1Cc1ccccc1F (configuration not stated) | x | -3.1 | x | 2 | x
COCCNC(=O)[C@H]1N2C(=O)c3ccccc3C2SC1(C)C (some centres not stated) | x | -2.1 | x | 12 | x
Cc1ccc(C(=O)OCC(=O)c2ccc(Cl)s2)s1 | 0 | 2.3 | 10 | 97 | 70%
CNC(=O)c1ccc(-c2nc(-c3ccccc3)cs2)cc1 | -5 | 2.2 | x | 5 | 4%
C(=N\Nc1ncnc2sc3c(c12)CCC3)/c1ccncc1 | 8 | -2.3 | -16 | u | -4%
Cc1c(NS(=O)(=O)c2cc(NC(=O)CCN3CCCC(C)C3)ccc2Cl)c(=O)n(-c2ccccc2)n1C (configuration not stated) | 19 | -0.8 | x | -14 | 0%
Cc1cc(NC(=O)Nc2ccc(F)c(Cl)c2)no1 | 4 | -1.1 | 4 | 0 | 1%
Oc1ccc(-c2n[nH]c(=S)n2-c2ccc3c(c2)OCCO3)cc1 | -1 | -1.0 | -15 | -1 | 6%
Cc1ccc(N2Cc3ccccc3OC(C)C2=O)cc1 (configuration not stated) | 5 | 5.5 | -3 | 6 | 6% | Arbovirus anti repeat=3
COc1ccccc1-n1nnnc1SCc1ccccc1 | -4 | 2.8 | -8 | -5 | 2%
CCCCNC(=S)N(C)/N=C/c1c(C)[nH]c2ccccc12 | -11 | -0.5 | -17 | -3 | -4%
CC(=O)NC1CCN(CC(=O)Nc2cccc([N+](=O)[O-])c2)CC1 | 9 | 0.4 | x | -2 | -1%
Cc1ccc(-c2noc(CN3CCN(c4ccccc4F)CC3)n2)cc1 | 26 | 2.1 | -30 | -5 | 0% | Arbovirus anti repeat=17
COCCn1c(C)cc(/C=C2\NC(=S)N(C)C2=O)c1C | 1 | x | 25 | 8 | 0%
CCOC(=O)N1CCN(S(=O)(=O)c2ccc(C(=O)NNc3nc4ccc(Cl)cc4s3)cc2)CC1 | -31 | -1.0 | -32 | 4 | -2%
CN1C(=O)C(=Cc2ccc(N3CCCCCC3)cc2)C(=O)N(C)C1=O | x | 1.2 | x | 85 | 0%
Cc1cccc(OCC(=O)Nc2ccc(C(=O)NCc3cccnc3)cc2)c1 | 6 | 1.1 | -41 | -18 | x
N#Cc1ccccc1NC(=S)NC(=O)C1CCC1 | x | -1.3 | x | 2 | x
CCN(CC)S(=O)(=O)c1ccc(NC(=O)[C@@H](NC(=O)c2cc(OC)cc(OC)c2)C(C)C)cc1 | -10 | 2.3 | x | -2 | 26%
CCC(C)(C)NC(=O)c1ccc2c(c1)OCCO2 | -3 | -1.9 | x | -11 | 2%
Cc1cccc(C)c1OCCn1nc(C(=O)O)c2ccccc2c1=O | -1 | 7.2 | -5 | 3 | -7%
COc1ccc(OC)c(NC(=O)COC(=O)c2c3c(nc4ccccc24)CCCC3)c1 | 6 | 0.1 | 17 | x | -4%
O=c1/c(=C/c2ccc(O)c([N+](=O)[O-])c2)sc2nc3ccccc3n12 | 30* | x | x | x | 9%
Fc1ccc(-c2ccc(/C=N/n3cnnc3)o2)cc1 | x | 3.0 | x | 12 | x
Cc1c(C(=O)N2CCCCC2C)sc2nc3n(c(=O)c12)CCC3 (configuration not stated) | x | 0.2 | x | -5 | x
O=C(c1ccc2c(c1)OCCO2)C1CCN(C(=O)c2ccc(F)cc2)CC1 | 9 | x | 12 | -3 | -7%
O=C(NCCSCc1ccco1)Nc1cc(Cl)cc(Cl)c1 | x | 14 | x | 100 | u
COc1ccc(S(=O)(=O)n2ccc(C(C)Oc3ccc(-c4ccccc4)c(F)c3)n2)cc1 (configuration not stated) | 9 | 1.9 | -30 | 7 | -5%
CCCN1CCN(S(=O)(=O)c2c(C)[nH]c(C)c2C(=O)N2CCCCC2)CC1 | x | 0.8 | x | -7 | x
COc1ccc(C2C3=C(CC(C)(C)CC3=O)N(CCN3CCOCC3)C3=C2C(=O)CC(C)(C)C3)cc1 | x | -114 | x | -1 | 0%
O=C(/C=C/c1ccc(Cl)cc1)NC1CC2CCC1C2 (configuration not stated) | 0 | 1.8 | x | 89 | u
CC(Oc1ccccc1)C(=O)Nc1cccc(-c2nc3ccccc3[nH]2)c1 (configuration not stated) | -20 | 9.0 | -26 | 22 | -6%
CCCCNC(=O)CNC(=O)c1nn(-c2ccc(OC)c(Cl)c2)c(=O)c2ccccc12 | x | -0.3 | x | -3 | x
CC(C)[C@H](NS(=O)(=O)c1ccccc1)C(=O)OCC(=O)Nc1ccc2c(c1)OCO2 | -20 | 5.6 | -18 | 0 | 2%
O=C(NC1CS(=O)(=O)CC1NCc1ccccc1)c1ccccc1 (configuration not stated) | 1 | 1.1 | -43 | -5 | -16%
CC(C)c1ccccc1NC(=S)NCc1ccncc1 | 1 | x | x | -3 | 4%
CN(Cc1ccccc1)C(=O)c1cc2ccccc2o1 | 2 | 2.7 | -15 | 9 | 7%
CCN(CC)CCN1C(=O)C(O)=C(C(C)=O)C1c1ccccc1[N+](=O)[O-] (configuration not stated) | x | 77* | x | 3 | -2%
CCC(=O)N1c2ccc(S(=O)(=O)N3CCN(c4ccc([N+](=O)[O-])cc4)CC3)cc2CC1C (configuration not stated) | x | -1.2 | x | 2 | x
COc1ccc(CN2CCC(=O)N([C@H](CO)Cc3ccccc3)CC2)cc1OC | x | -1.2 | x | -10 | x
Cc1ccc(C2(O)C(=O)c3ccccc3C2=O)c(O)c1C | x | 1.1 | x | -7 | -4%
Cc1c(C(=O)NN)nc2ccccn12 | 1 | -3.2 | -36 | -1 | 22%
Cc1ccc(C)c(SCC(=O)NC(=O)NCc2ccccc2)c1 | 3 | -2.5 | -30 | 8 | 2%

The last 2 compounds of the section above are carried over, then new ones follow:
SMILES | Arbovirus anti | RecA intein inh | YopH inh | Mtb betalactam | Mtb growth | others
Cc1c(C(=O)NN)nc2ccccn12 | 1 | -3.2 | -36 | -1 | 22%
Cc1ccc(C)c(SCC(=O)NC(=O)NCc2ccccc2)c1 | 3 | -2.5 | -30 | 8 | 2%
Cc1ccc(-n2ncc3c2CC(C)(C)CC3NC(=O)c2ccccn2)cc1 (configuration not stated) | x | 11 | x | 96 | x
CCc1c(C)nc(SCC(=O)N2CCCCC2C)[nH]c1=O (configuration not stated) | 12 | 4.9 | x | 2 | 1%
O=C(NCCN1CCN(S(=O)(=O)c2ccc([N+](=O)[O-])cc2)CC1)C(=O)Nc1ccccc1 | -11 | 9.7 | x | -6 | 8%
O=C(CC1Nc2ccccc2NC1=O)NC1CCCCC1 (configuration not stated) | -5 | -5.1 | -25 | -3 | x
COCCNC(=O)C(C)OC(=O)C1=Cc2ccccc2OC1 (configuration not stated) | 5 | -2.2 | x | -9 | -7%
c1cnc(SCCCOc2ccc3ccccc3c2)nc1 | 4 | 14 | 7 | 1 | x
COc1ccc(NS(=O)(=O)c2ccc(-c3cnc(C4CC4)o3)cc2)cc1OC | x | 4.3 | x | -1 | x
Cc1nc(NCCCn2ccnc2)c2oc3ccccc3c2n1 | -5 | 2.3 | 1 | -5 | 7%
Cc1ccc(C(=O)Nc2cccc(C(=O)N/N=C/c3ccc(O)cc3)c2)cc1 | x | 1.1 | x | 2 | x
CC(=O)Nc1ccc(Nc2ncnc3c2cnn3-c2ccccc2)cc1 | 2 | -1.1 | -36 | -9 | 2%
CCOC(=O)C(=NC(C)(C)C)NNc1cc(Cl)ccc1Cl | 3 | 11 | -17 | 82 | u
CC(O)c1nc2ccccc2n1CCCOc1ccccc1 (configuration not stated) | x | 0.5 | x | -7 | -3%
N=C1c2ccccc2CN1NC(=O)c1ccc(Cl)cc1 | 0 | -4.8 | 2 | 3 | 8%
COC(=O)C1CCN(Cc2ccc(C)cc2)CC1 | -2 | -2.1 | -10 | -4 | 0%
Cc1ccc(Cn2c(=O)oc3ccccc32)cc1 | 2 | 2.0 | x | -7 | 5%
O=C(N/N=C/c1cccc([N+](=O)[O-])c1)C1CC1c1ccccc1 (configuration not stated) | -12 | 1.0 | -19 | 2 | 5%

Structures shown so far with fluorine (10):
SMILES | Arbovirus anti | RecA intein inh | YopH inh | Mtb betalactam | Mtb growth | others
Cc1c(NC(=S)Nc2ccccc2C(F)(F)F)cccc1[N+](=O)[O-] | -1 | -1.6 | -25 | 7 | -9%
CN1CCN(S(=O)(=O)c2ccc(NC(=O)c3cccc(F)c3)cc2)CC1 | x | -1.5 | x | 1 | x
Fc1ccc(-c2csc(N3CCSCC3)n2)cc1 | 3 | 3.7 | x | 0 | 2%
CC1CC(C)CN(C(=O)COC(=O)c2cc(S(=O)(=O)N3CCOCC3)ccc2F)C1 (configuration not stated) | x | -1.8 | x | 0 | x
CN(CCN1CCOCC1)C(=O)CC1C(=O)NCCN1Cc1ccccc1F (configuration not stated) | x | -3.1 | x | 2 | x
Cc1cc(NC(=O)Nc2ccc(F)c(Cl)c2)no1 | 4 | -1.1 | 4 | 0 | 1%
Cc1ccc(-c2noc(CN3CCN(c4ccccc4F)CC3)n2)cc1 | 26 | 2.1 | -30 | -5 | 0% | Arbovirus anti repeat=17
Fc1ccc(-c2ccc(/C=N/n3cnnc3)o2)cc1 | x | 3.0 | x | 12 | x
O=C(c1ccc2c(c1)OCCO2)C1CCN(C(=O)c2ccc(F)cc2)CC1 | 9 | x | 12 | -3 | -7%
COc1ccc(S(=O)(=O)n2ccc(C(C)Oc3ccc(-c4ccccc4)c(F)c3)n2)cc1 (configuration not stated) | 9 | 1.9 | -30 | 7 | -5%

The list is partial; count on the stated rates, not on these rows.
